Assay outcomes: PubChem BioAssay, several laboratories
B2AR ag: beta2AR agonists driving receptor internalization, primary screen, cell-based, FAP fluorogen, flow cytometry; Beta-2 adrenergic receptor (Homo sapiens), P07550; Am2.2-beta2AR cells; reference of the scale not given here; response, % (no concentration beside the values); 340,000 tested, 0.43% active;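 active = response above a set limit, near 3 SD of response in nonfluorescent compounds, cut at about 42% in these data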;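 also: stock transfer was 100 nL into about 11 µL; a reference agonist was the positive control; negative values mostly stem from fluorescent compounds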
E coli growth: E. coli growth inhibition, primary screen, OD600. OD600 absorbance (test concentration not listed). Escherichia coli growth, 23 h; active compounds read low. 330,000 tested, 0.21% active;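 active = OD600 absorbance below the run mean of sample wells minus 3.6 SD, in any replicate, cut at about 0.56 in these data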;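 also: stock transfer was 300 nL into about 60 µL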
ALR inh: inhibitors of human ALR sulfhydryl oxidase, primary screen, biochemical, H2O2 detection, HRP-luminol luminescence, single point; AID 485317, 2010; 290,000 tested, 3.8% active; purified ALR, DTT oxidation; inhibition, % (no concentration beside the values);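 active = mean and each replicate at 75% or more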;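 also: stock transfer was 7.5 nL into about 7.5 µL; 0% = neutral wells and 100% = wells with inactivated enzyme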
rRNA inh HTS: reduced GFP signal of wild-type E. coli, primary screen, bacterial rRNA inhibitor project, GFP/RFP fluorescence, OD600, single point; E. coli WT GFP vs humanized-ribosome RFP mutants, 24 h; active compounds read low; DMSO median 0, no signal -100; GFP signal change (wild-type ribosome), % (no concentration beside the values); 350,000 tested, 1.6% active;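 active = significant combined selectivity score with lowered wild-type GFP, culture density cut under 30%, mutant RFP and density less affected; inactive = any of these conditions unmet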; also: one replicate is shown; some compounds called inactive have numbers as strong as hits
FGF22 binding: binders of human FGF22 protein, primary screen, FGF22 synaptogenesis inhibitor project, biophysical, thermal shift, single point | Fibroblast growth factor 22 (Homo sapiens), Q9HCT0 | recombinant FGF22 thermal shift, SYPRO orange fluorescence; percent of sucrose octasulfate shift, DMSO zero | calls only at 9.99 µM | 340,000 tested, 1.5% active;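 active = melting point raised past a set limit in the mean and every replicate; three in four hits are not shown here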
Target sequence (Q9HCT0 whole entry, looked up): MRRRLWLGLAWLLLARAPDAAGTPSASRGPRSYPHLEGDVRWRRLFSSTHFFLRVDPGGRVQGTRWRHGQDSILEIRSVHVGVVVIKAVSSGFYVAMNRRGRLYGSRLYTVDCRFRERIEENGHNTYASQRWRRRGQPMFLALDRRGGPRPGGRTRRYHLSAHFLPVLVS
HNF4A DNA FP: change in binding of human HNF4A to DNA, primary screen, biochemical, fluorescence polarization, FITC-DNA | Hepatocyte nuclear factor 4-alpha (Homo sapiens), P41235 | 1 h | activity change, % at 10 µM | 360,000 tested, 0.3% active; in the data active = activity change above about 30%, passing the limit was not always enough;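 also: controls were the assay level and a saturating level of protein; the project sought stronger binding though the title names inhibitors; some compounds called inactive have numbers as strong as hits; positive values seem to mean higher polarization but the record does not say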
Target sequence (P41235 whole entry, looked up): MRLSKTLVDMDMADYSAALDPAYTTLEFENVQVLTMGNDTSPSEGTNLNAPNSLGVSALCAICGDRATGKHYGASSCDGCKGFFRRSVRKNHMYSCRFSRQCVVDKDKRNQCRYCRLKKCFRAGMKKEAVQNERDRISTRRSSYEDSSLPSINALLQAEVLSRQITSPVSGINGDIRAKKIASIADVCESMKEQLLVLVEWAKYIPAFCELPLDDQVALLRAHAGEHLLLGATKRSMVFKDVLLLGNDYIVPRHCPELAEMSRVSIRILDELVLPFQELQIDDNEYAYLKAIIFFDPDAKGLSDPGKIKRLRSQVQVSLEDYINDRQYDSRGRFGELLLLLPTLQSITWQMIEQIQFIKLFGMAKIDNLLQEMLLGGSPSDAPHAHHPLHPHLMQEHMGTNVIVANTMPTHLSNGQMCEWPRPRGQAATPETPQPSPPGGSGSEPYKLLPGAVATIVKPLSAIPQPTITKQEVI
UCH37 inh: inhibitors of human UCH37 deubiquitinase, primary screen, biochemical, Ub-AMC cleavage, fluorescence. 330,000 tested, 0.33% active. Ubiquitin carboxyl-terminal hydrolase isozyme L5 (Homo sapiens), Q9Y5K5. inhibition, % (no concentration beside the values). AID 588478, 2011. purified proteasome/UCH37;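 active = mean of two replicates above 20%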;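 also: 0% = compound-free wells with enzyme and 100% = wells lacking proteasome; stock transfer was 100 nL into about 20 µL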
Target sequence (Q9Y5K5 whole entry, looked up): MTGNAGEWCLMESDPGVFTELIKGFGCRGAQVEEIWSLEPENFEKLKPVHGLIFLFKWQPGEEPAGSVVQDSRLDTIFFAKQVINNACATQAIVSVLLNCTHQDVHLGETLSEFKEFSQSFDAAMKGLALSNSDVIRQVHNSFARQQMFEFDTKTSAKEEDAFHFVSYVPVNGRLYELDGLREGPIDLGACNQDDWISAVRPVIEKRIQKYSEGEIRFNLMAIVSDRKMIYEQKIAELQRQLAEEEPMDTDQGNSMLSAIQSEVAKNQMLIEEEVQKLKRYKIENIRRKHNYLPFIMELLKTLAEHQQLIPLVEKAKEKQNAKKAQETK
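Material: human UCH37 enzyme supplied as purified proteasome complex. Measure: % inhibition of Ub-AMC cleavage fluorescence. Medium: pH 7.4 Tris-HCl (50 mM) with ovalbumin, ATP-MgCl2, DTT. Times: 30 min preincubation with enzyme, 25 min cleavage at room temperature. Detection: AMC fluorescence intensity at 355/460 nm.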
rRNA inh HTS OD600: second read-out of rRNA inh HTS, no call of its own (marks repeat the call); OD600 change, %; measured here: OD600 growth;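 optical density of the mix in the first replicate; 0 = DMSO median and -100 = no signal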
rRNA inh HTS RFP: further read-out of rRNA inh HTS, marked with its call; RFP signal change, %; measured here: RFP humanized mutant strains;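 first replicate; 0 = DMSO median and -100 = no signal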
The depositor's hits bear a star; i = inactive; · = not tested or not shown. Not all compounds are listed; the hit share may differ from the screen's.

SMILES	B2AR ag	E coli growth	ALR inh	rRNA inh HTS	rRNA inh HTS OD600	rRNA inh HTS RFP	FGF22 binding	HNF4A DNA FP	UCH37 inh
O=C(NCCCNC(=O)c1ccc(F)cc1)c1ccc(F)cc1	8	0.69	-1	5	1	0.3	i	2.9	1.1
COCCn1c(C)cc(C2=NNC(=Nc3ccccc3)SC2)c1C	-4	0.71	-17	·	·	·	·	1.6	9.2
O=C(NCc1cccnc1)C(=O)NCC1OCCCN1S(=O)(=O)c1ccccc1 (stereo not drawn)	0	0.67	-22	·	·	·	·	-0.1	4.5
CC(C)Sc1nnc([C@H](C)NC(=O)OC(C)(C)C)o1	7	0.71	1	·	·	·	·	-1.6	2.3
O=C1C(=O)N(CCN2CCOCC2)C(c2ccc(Cl)cc2)/C1=C(/O)c1ccc(S(=O)(=O)N2CCOCC2)cc1 (stereo not drawn)	-5	0.69	6	·	·	·	·	-4.6	20
CN(CC(=O)NCCN1CCN(Cc2ccccc2)CC1)S(=O)(=O)c1cccc2nsnc12	6	0.69	-15	·	·	·	·	-1.9	3.4
COc1ccc(/C=C2\C(=O)NC(=S)N2C(=O)c2ccc(C)cc2)cc1	0	0.7	·	-9	-12	30	i	16	-2.6
Cc1nc(Sc2cccn2C)c(C(F)(F)F)c(=O)[nH]1	4	0.69	-5	2	11	-1.5	·	3.3	0.7
Cc1ccc(N/C=C2\C(=O)N(c3ccc(F)cc3F)C(c3cccnc3)S2(=O)=O)cc1 (stereo not drawn)	6	0.67	·	10	8	1.9	i	3.5	3.7
COc1cccc(CNC(=O)c2ccccc2N)c1	-5	0.66	-4	·	·	·	·	-2.4	-115
O=[N+]([O-])c1ccc2cccnc2c1	·	·	·	8	15	-4.5	i	1.4	·
O=C(c1ccc(Cl)cc1)N1CCC(C(=O)N2CCCc3ccccc32)CC1	13	0.67	2	-14	-12	0.5	i	-0.6	1.7
CC1CCCN(S(=O)(=O)c2cccc(-c3cn4cccnc4n3)c2)C1 (stereo not drawn)	-3	0.77	48	·	·	·	·	-2.3	-281
Cn1c(N)c(Br)c(-c2ccc(F)cc2)c(C#N)c1=O	2	0.66	-15	-10	-13	-6.6	i	6.5	7.6
O=C(O)C1CC1C(=O)Nc1nc2c(Cl)cccc2s1 (stereo not drawn)	-3	0.69	-4	-2	5	-0.5	i	2.4	4.5
NCCC(=O)NCCc1cnc[nH]1	11	0.68	1	8	15	3.2	i	0.2	-0.7
C/C(=C(\C#N)C(=O)NCCCN1CCOCC1)N(C)C	-3	0.71	-11	·	·	·	·	-1.5	3.3
COc1ccc(C(=O)C2CCCN(Cc3ccc(C#CCCO)cc3)C2)cc1F (stereo not drawn)	-11	0.65	0	-12	-14	-4.4	i	-7.9	5.9
COCCN(Cc1cccs1)S(=O)(=O)c1csc(C(N)=O)c1	0	0.71	20	11	5	1.4	i	4.8	1.1
COc1ccc2[nH]c(C)c(C(=O)CN3CC(C)OC(C)C3)c2c1 (stereo not drawn)	-5	·	0	·	·	·	·	2.9	·

Arranged by heavy-atom count (rising): part of the list above
SMILES	B2AR ag	E coli growth	ALR inh	rRNA inh HTS	rRNA inh HTS OD600	rRNA inh HTS RFP	FGF22 binding	HNF4A DNA FP	UCH37 inh
O=[N+]([O-])c1ccc2cccnc2c1	·	·	·	8	15	-4.5	i	1.4	·
COc1cccc(CNC(=O)c2ccccc2N)c1	-5	0.66	-4	·	·	·	·	-2.4	-115
COCCN(Cc1cccs1)S(=O)(=O)c1csc(C(N)=O)c1	0	0.71	20	11	5	1.4	i	4.8	1.1
COCCn1c(C)cc(C2=NNC(=Nc3ccccc3)SC2)c1C	-4	0.71	-17	·	·	·	·	1.6	9.2
CC1CCCN(S(=O)(=O)c2cccc(-c3cn4cccnc4n3)c2)C1 (stereo not drawn)	-3	0.77	48	·	·	·	·	-2.3	-281
O=C(c1ccc(Cl)cc1)N1CCC(C(=O)N2CCCc3ccccc32)CC1	13	0.67	2	-14	-12	0.5	i	-0.6	1.7
O=C(NCc1cccnc1)C(=O)NCC1OCCCN1S(=O)(=O)c1ccccc1 (stereo not drawn)	0	0.67	-22	·	·	·	·	-0.1	4.5

Further entries follow:
SMILES	B2AR ag	E coli growth	ALR inh	rRNA inh HTS	rRNA inh HTS OD600	rRNA inh HTS RFP	FGF22 binding	HNF4A DNA FP	UCH37 inh
C=C[C@]1(C)C=C2CCC3[C@](C)(CCC[C@@]3(C)C(=O)O)C2CC1 (stereo partly drawn)	10	·	1	·	·	·	·	3.0	·
COc1ccc(C(C)C)cc1S(=O)(=O)N1CCC(C(=O)NCc2cccnc2)CC1	1	0.67	-2	-3	-6	1.0	i	-2.4	-4.0
Cc1ccc(C)c(Nc2nc3ccc(C)cc3n3cnnc23)c1	-3	0.69	17	6	14	-1.6	i	16	-118
CN(C)C(=O)c1cc(Br)ccc1Cl	-5	0.7	-6	·	·	·	·	-4.4	-1.4
CCOc1cc(NC(=S)NCCCN2CCOCC2)c(OCC)cc1NC(=O)c1ccc(OC)cc1	0	0.7	-27	-7	0	-1.9	i	1.3	-5.3
COc1ccc(C(C#N)=Cc2ccccc2OC)cc1	·	·	·	-17	-45	-5.5	i	0.4	·
O=C(N/N=C/c1ccc[nH]1)c1c[nH]c2ccccc12	18	·	·	·	·	·	i	3.7	·
Cc1ccccc1NC(=O)Cn1c(=O)n(-c2ccc(CC(=O)NCC3CCCO3)cc2)c(=O)c2ccccc21 (stereo not drawn)	8	0.69	-10	11	8	-2.4	i	1.8	2.4
Cc1ccc(C(=O)N/C(=C\c2ccc([N+](=O)[O-])cc2)C(=O)NCCc2ccccc2)cc1	12	0.76	-19	·	·	·	·	2.2	4.0
CCCCNC(=O)c1cc2c(C)cc(C)cc2[nH]1	2	0.68	2	-22*	-4.8*	-2.0*	i	4.3	3.6
COc1ccc(-c2cccc(NC(=O)c3ccco3)c2)nn1	-14	0.68	·	-3	-1	-1.5	i	2.5	2.9
O=Cc1ccc2c(c1)OCCOCCOCCOCCO2	·	·	·	6	12	-1.7	i	-2.5	·
Cc1cc(/C=C2\SC(=Nc3ccc(F)cc3)NC2=O)c(C)n1-c1ccc(S(N)(=O)=O)cc1	24	0.71	-5	·	·	·	·	10	-0.5
O=C(Nc1ccncc1)c1cn(-c2ccccc2)nc1-c1cccs1	-14	0.68	9	·	·	·	·	0.4	-1.2
CCOC(=O)c1cnc(-n2nc(C)cc2C)nc1NC1CCCC1	-5	·	38	-49*	-35*	-9.7*	i	4.6	·
Cn1c(=O)n(C)c2cc(S(=O)(=O)NCCOCCO)ccc21	1	0.68	·	·	·	·	·	2.5	-1.0
COc1ccc(N2CCN(CC(O)COc3ccccc3[N+](=O)[O-])CC2)cc1 (stereo not drawn)	-6	0.62	·	-4	-6	0.0	i	-0.8	5.5
CCOC(=O)c1[nH]c2c(c1-c1ccccc1)C(=O)CC(c1ccc(OCC)cc1)C2 (stereo not drawn)	13	0.72	-12	2	11	-0.4	i	-2.5	0.9
O=C(Nc1nc(-c2ccc3ccccc3c2)cs1)C1CCN(S(=O)(=O)c2cccs2)CC1	2	0.69	·	-15*	3.7*	0.1*	i	-6.6	-1.3
COc1ccccc1C(=O)NC(=O)COC(=O)c1cnc(C)cn1	6	0.59	-12	1	1	-0.1	i	2.6	1.0
Nc1ncnc2c1ncn2[C@@H]1O[C@H](CNCc2cn(CC(=O)NC3CC3)c3ccccc23)[C@@H](O)[C@H]1O	-1	0.68	0	12	10	0.4	i	1.8	1.5
O=C(COc1ncnc2cc(Cl)ccc12)c1ccccc1	-9	0.64	-1	6	-3	-1.0	i	4.9	6.8
Cc1cc2ccccc2c(=O)[nH]1	4	0.71	-1	·	·	·	·	3.5	-15
O=c1oc(-c2ccco2)nc2ccccc12	-2	0.7	·	·	·	·	·	1.3	0.3
COc1ccc(Cl)cc1NC(=S)NCCSc1ccc(C)cc1	3	0.72	-25	-46	-65	-12	i	-1.6	4.9
COc1ccccc1NC(=O)C(C(C)C)N1C(=O)c2ccccc2C1=O (stereo not drawn)	-9	0.71	-3	-16	-11	-8.4	i	-0.7	6.4
COc1ccc(-c2cc(C(F)(F)F)nc(SCC(=O)N(C)Cc3cnn(C)c3C)n2)cc1OC	-11	0.7	-7	·	·	·	·	6.7	-64
CCN(C[C@H]1N[C@@](Cc2ccccc2)(C(=O)OC)[C@H]2C(=O)N(C)C(=O)[C@@H]12)C(=O)COC	-6	0.7	-1	·	·	·	i	0.4	0.2
CCOc1ccc(CCNC(=O)COC(=O)c2ccc(OC(C)C)cc2)cc1OCC	0	0.67	11	6	2	-1.0	i	0.3	0.7
CC1CCCCN1S(=O)(=O)c1ccc(C(=O)Nc2nnc(-c3ccccn3)o2)cc1 (stereo not drawn)	0	0.7	12	10	16	-3.6	i	1.9	8.5
COC(=O)c1ccc(COC(=O)CNC(=O)CNC(=O)c2ccc(OC)cc2)cc1	0	0.71	-4	9	1	-2.5	i	8.2	-1.1
CCCCCN(C(=O)CCC(=O)OCC(=O)Nc1cccc(SC)c1)c1c(N)n(CCCC)c(=O)[nH]c1=O	10	0.65	-2	0	3	-2.1	i	-1.8	3.3
CN(Cc1nc2ccc(F)cc2[nH]1)Cc1nc(CC2CC2)no1	-4	0.74	-10	·	·	·	·	-3.0	-1.8
O=C(C1CCN(S(=O)(=O)c2cnc[nH]2)CC1)N1CCc2ccccc2C1	-3	0.73	·	·	·	·	·	1.6	1.0
Cc1ccc(N2CCN(C(=O)C(=O)c3ccc(F)c(F)c3)CC2)cc1	·	·	·	-1	6	0.2	i	2.1	·
CN(C)C=NC1=NN(c2cccc(C(F)(F)F)c2)CC1	-12	0.69	95*	·	·	·	·	1.9	6.0
N#C/C(=C/c1ccc(N2CCCCC2)o1)C(=O)Nc1ccc2ccccc2c1	·	·	·	50	-6	4.1	i	-84	3.2
Cc1onc(-c2c(Cl)cccc2Cl)c1NC(=O)NN(C)C	-2	0.68	39	11	11	0.4	i	-1.6	6.1
Cc1cc(Cl)ccc1NC(=O)CN1CCC(C(O)(c2ccccc2)c2ccccc2)CC1	8	0.68	0	·	·	·	·	-3.9	1.5
O=C1NC[C@H](CCCCN2CCN(CCc3ccccc3)C(=O)C2=O)N(CCC2CCCCC2)C1=O	·	·	·	11	7	4.9	i	-2.7	·
O=C(COC(=O)C1CCC1)NCc1ccc(F)cc1	17	0.66	-7	3	5	-1.0	i	3.6	1.2
O=C(NCc1ccccc1F)c1cc(=O)[nH]c2ccccc12	1	0.68	-2	2	7	-0.3	i	0.9	-26
c1ccc(-c2csc3ncnc(NCCCN4CCOCC4)c23)cc1	1	0.73	-3	·	·	·	·	0.6	-0.1
